# Bioassay records from PubChem BioAssay.
# Env fusion inh – inhibitors of HIV-1 Env-driven cell-cell fusion, primary screen, HeLa-JRFL effector, CEM21 target cells, luciferase; inhibition, % at 12.3 µM; 360,000 tested, 1.1% active; AID 651610, 2012;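 active = mean replicate inhibition score of at least 50 and every replicate individually at or above 50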;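 note: 0% = plate neutral controls and 100% = maraviroc near 300 nM; one replicate is shown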
# MT1-MMP act inh – blockers of MT1-MMP proenzyme processing, primary screen, HT1080 RFP-PRO-GFP cells, GFP/RFP fluorescence; 360,000 tested, 0.061% active; GFP/RFP ratio fluorescence, overnight; percent of plate control window, DMSO zero; Matrix metalloproteinase-14 (Homo sapiens), P50281; GFP/RFP ratio change, % at 20 µM;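 active = GFP/RFP ratio change of at least 30% with cell ATP level not reduced by more than half and red fluorescence within 50% of control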; note: strong numbers were not always called active
#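 Assay system: HT1080 RFP-PRO-GFP cells. Benchmarks: DMSO vehicle wells and RFP-L50D-GFP reporter cell wells. Times: overnight cell settling, then overnight compound exposure, 37 °C, 5% CO2. Compound: 20 µM single dose, 1% DMSO. Read-out basis: GFP/RFP fluorescence ratio.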
# PABP polyA inh – PABP poly(A) RNA binding inhibitors, primary screen, biochemical, fluorescence polarization, uHTS. Polyadenylate-binding protein 1 (Homo sapiens), P11940. inhibition, % at 35 µM. 290,000 tested, 1% active. AID 2014, 2009;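 active = 50% or more with normal probe brightness, or confirmed in later tests; about a fifth of its hits are not listed in these tables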;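 note: calls also rest on retests at 20 µM and on dose response follow-up; controls were probe without protein and protein plus probe with vehicle; some compounds called inactive have numbers as strong as hits; many hits fall short of the cut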
# Target sequence (P11940 whole entry, looked up): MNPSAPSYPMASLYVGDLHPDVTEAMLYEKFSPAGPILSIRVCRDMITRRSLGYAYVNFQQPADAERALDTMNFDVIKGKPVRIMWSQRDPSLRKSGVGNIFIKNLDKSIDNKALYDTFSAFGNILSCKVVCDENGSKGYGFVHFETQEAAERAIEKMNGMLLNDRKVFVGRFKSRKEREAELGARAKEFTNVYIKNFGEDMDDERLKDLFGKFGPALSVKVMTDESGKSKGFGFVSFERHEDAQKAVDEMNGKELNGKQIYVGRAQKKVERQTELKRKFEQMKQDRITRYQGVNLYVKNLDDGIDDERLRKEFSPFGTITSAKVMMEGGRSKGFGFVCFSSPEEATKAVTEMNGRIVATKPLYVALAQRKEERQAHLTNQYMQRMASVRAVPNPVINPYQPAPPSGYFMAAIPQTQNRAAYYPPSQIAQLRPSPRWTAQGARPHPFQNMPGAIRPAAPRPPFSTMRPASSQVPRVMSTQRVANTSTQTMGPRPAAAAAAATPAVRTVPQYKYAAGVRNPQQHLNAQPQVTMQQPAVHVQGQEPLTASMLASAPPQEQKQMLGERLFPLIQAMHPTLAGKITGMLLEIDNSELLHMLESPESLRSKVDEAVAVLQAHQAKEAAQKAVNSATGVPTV
# eIF4H inh – human eIF4H binding inhibitors, primary screen, translation initiation inhibitor project, biochemical, uHTS, fluorescence polarization; inhibition, % at 35 µM; 290,000 tested, 0.94% active; eIF4H fluorescence polarization binding assay;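 active = 50% or more with normal probe brightness, or confirmed in later tests; about a fifth of its hits are not listed in these tables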;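 note: calls also rest on retests at 20 µM and on dose response follow-up; 0% = protein and probe with vehicle and 100% = probe without protein; strong numbers were not always called active; many hits fall short of the cut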
# CSC inhib – cancer stem cell viability inhibitors, primary screen, luminescence. cancer stem cell-like cells viability. inhibition, % at 7.5 µM. 300,000 tested, 1.1% active. AID 2717, 2010;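 active = mean at 75% or more and at least half the replicates too; tested in HMLE shEcad cells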;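 note: 0% = median of negative and 100% = median of positive control wells; the first replicate is given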
# Rce1 inhib – yeast Rce1p protease inhibitors, primary screen, biochemical, fluorescence, cell-free homogeneous; CAAX prenyl protease 2 (Saccharomyces cerevisiae (strain ATCC 204508 / S288c)), Q03530; yeast membranes, quenched prenylated peptide cleavage fluorescence; calls only; 290,000 tested, 0.27% active;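 active = fall in fluorescence gain of 50% or more versus controls, with final raw signal at or below 3038400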;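 note: plate controls were neutral control wells for no effect and wells lacking membranes for full effect; tested at 10 µM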
# Target sequence (Q03530 whole entry, looked up): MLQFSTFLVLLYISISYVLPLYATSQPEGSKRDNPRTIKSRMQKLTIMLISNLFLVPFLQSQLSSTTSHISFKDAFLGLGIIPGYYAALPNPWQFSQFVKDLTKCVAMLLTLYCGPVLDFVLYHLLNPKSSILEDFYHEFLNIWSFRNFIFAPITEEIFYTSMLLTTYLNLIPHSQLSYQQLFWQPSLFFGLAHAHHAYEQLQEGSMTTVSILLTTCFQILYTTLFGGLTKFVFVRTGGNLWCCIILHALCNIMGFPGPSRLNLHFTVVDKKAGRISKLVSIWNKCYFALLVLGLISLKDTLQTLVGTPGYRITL
# Yeast UUG start – modulators of yeast start codon fidelity, primary screen, whole organism, S. cerevisiae, single point, plate reader; S. cerevisiae UUG-firefly luciferase reporter, luminescence/redox ratio; activity score, % at 18.7 µM; 350,000 tested, 0.13% active;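 active = replicate mean at a twofold rise or more, about +100% in these data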;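 note: firefly luciferase made from a UUG start codon reports start codon fidelity; reporter light over untreated wells divided by growth signal over untreated wells; some hits fall short of that in this replicate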
# eIF4H inh retest – recorded beside eIF4H inh, whose call it bears; inhibition, %; compound at 20 µM; confirmation average;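 mean of two retest wells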
# PABP polyA inh retest – further read-out of PABP polyA inh, marked with its call; inhibition, %; compound at 20 µM; confirmation repeats;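 mean of two retest wells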
# MT1-MMP act inh RFP – also measured in MT1-MMP act inh; calls as there; RFP signal change, %; measured here: RFP expression control read;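 0 = vehicle wells; hits needed this value within 50% of zero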
# Active calls of the source: *; i = inactive; . = no result given.
SMILES,Env fusion inh,MT1-MMP act inh,MT1-MMP act inh RFP,PABP polyA inh,eIF4H inh,CSC inhib,Rce1 inhib,Yeast UUG start,others
C[C@@H]1CN([C@@H](C)CO)C(=O)CCCn2cc(nn2)CO[C@H]1CN(C)S(=O)(=O)c1ccc(-n2cccn2)cc1,14,2,5,.,.,.,.,3,
O=C(NC1CCCCC1)c1ccc(Cn2cc(Br)cn2)o1,.,0,1,-5,3,-15,i,2,
CC1(C)Cc2cccc(OCC(=O)NCc3cccs3)c2O1,.,-3,2,.,.,-9,i,-2,
N#CN1CCC(NS(=O)(=O)c2ccc(C(F)(F)F)cc2)CC1,-5,6,-3,.,.,.,.,-15,
COC(=O)CNC(=O)c1cccs1,-19,-3,0,20,-13,8,i,-14,
CC1(C)C(c2cccs2)=[N+]([O-])C2(CCCCC/C2=N\NC(N)=O)N1O (stereo not given),.,-1,0,9,1,-7,i,1,
CCOC(=O)c1cc(C#N)c(SCC(N)=O)[nH]c1=O,-3,-18,1,38,48,-14,i,.,
Cc1cnc(C(=O)OCC(=O)NCCc2ccccc2)cn1,-5,-5,-6,2,-4,-4,i,-4,
O=c1c2ccccc2nnn1CSc1nnc(Nc2ccccc2)s1,-66,5,7,-12,8,0,i,-25,
CCOC(=O)c1ccc(NC(=O)C(=O)NCC2CCCO2)cc1 (stereo not given),.,0,2,-4,-6,-8,i,2,
O=C(NNC(=O)c1cc(OCC(F)(F)F)ccc1OCC(F)(F)F)c1ccc(Cl)c(Cl)c1,.,-2,-9,-7,9,16,i,.,
CC(=O)N/C(=C/c1ccc(OC(F)F)cc1)C(=O)O,-11,0,5,-25,-13,7,i,.,
Cc1ccc(C)c(NC(=O)CN(C)S(=O)(=O)c2ccc(F)cc2)c1,.,5,2,6,-6,-6,i,-6,
CC(NC(=O)c1sc2ccccc2c1Cl)C1CCCO1 (stereo not given),-88,1,4,-11,-4,-10,i,.,
O=C(COc1cccnc1[N+](=O)[O-])Nc1ccc2c(c1)OC(F)(F)O2,-24,1,-3,-1,-3,-4,i,-21,

# In the list so far, three contain four or more nitrogen atoms.
SMILES,Env fusion inh,MT1-MMP act inh,MT1-MMP act inh RFP,PABP polyA inh,eIF4H inh,CSC inhib,Rce1 inhib,Yeast UUG start,others
C[C@@H]1CN([C@@H](C)CO)C(=O)CCCn2cc(nn2)CO[C@H]1CN(C)S(=O)(=O)c1ccc(-n2cccn2)cc1,14,2,5,.,.,.,.,3,
CC1(C)C(c2cccs2)=[N+]([O-])C2(CCCCC/C2=N\NC(N)=O)N1O (stereo not given),.,-1,0,9,1,-7,i,1,
O=c1c2ccccc2nnn1CSc1nnc(Nc2ccccc2)s1,-66,5,7,-12,8,0,i,-25,

# Next results:
SMILES,Env fusion inh,MT1-MMP act inh,MT1-MMP act inh RFP,PABP polyA inh,eIF4H inh,CSC inhib,Rce1 inhib,Yeast UUG start,others
CCCNC(=O)c1cc(SC)ccc1Cl,-8,4,3,0,-2,-3,i,-2,
CCCn1c(C)cc(C(=O)COC(=O)c2cc(=O)[nH]c3ccccc23)c1C,-192,5,2,.,.,.,.,-13,
CN(C)c1cccc(C(=O)OCCNC(=O)c2cccc(S(=O)(=O)N3CCOCC3)c2)c1,20,-2,-15,9,-5,22,i,2,
Cc1ccnc(SCCn2c(N3CCC(C)CC3)nc3c2c(=O)n(C)c(=O)n3C)n1,22,-2,1,.,.,-2,i,.,
COc1cc(C)c(NC(=S)Nc2ccc(Cl)c(Cl)c2)cc1OC,9,-1,2,12,-10,33,i,.,
COC(=O)c1ccc(NC(=O)CN2CCN(c3ccccc3C)CC2)cc1,.,3,-2,-4,8,-10,i,-29,
O=c1[nH]c2cc(NCCO)c([N+](=O)[O-])cc2[nH]1,-8,11,4,5,6,.,i,.,
CCNC(=O)CN(c1ccc(C)cc1)S(=O)(=O)c1ccccc1,-39,0,2,-7,-7,2,i,-16,
CCC(=O)Nc1nc(C)c(-c2csc(Nc3ccccn3)n2)s1,15,-6,-9,-13,-1,51,i,.,
Cc1ccc(S(=O)(=O)c2nc(-c3cccs3)oc2N2CCC(C(N)=O)CC2)cc1,-10,0,2,.,.,-6,.,-30,
Cc1ccc(NS(=O)(=O)c2ccc3[nH]c(=O)oc3c2)c(C)c1,-9,-5,-1,15,-8,-5,i,-11,
O=C(O)c1cnn2c(C(F)(F)F)cc(-c3ccccc3)nc12,-22,2,3,16,4,-13,i,-22,
CCC(/C=N/NC(=O)C1COc2ccccc2O1)CC (stereo not given),.,0,11,-6,-4,6,i,.,
CCC(Sc1nncn1C)C(=O)Nc1nnc(-c2ccc(Cl)cc2)s1 (stereo not given),-10,1,2,-9,-7,-5,i,-4,
O=C(CSc1nncs1)NNC(=O)c1ccccc1Br,2,0,3,.,.,-15,.,-19,
NS(=O)(=O)c1ccc(CNC(=O)/C=C/c2c(F)cccc2Cl)cc1,12,3,-2,5,8,-4,i,.,
O=C(CCC(=O)Nc1ccc(Br)cc1)N/N=C/c1ccccc1O,-5,3,-5,-15,-6,33,i,0,
CCc1ccc(NC(=O)CSc2nnc(C)c(=O)n2N)cc1,5,2,1,-1,-2,-2,i,-21,
O=C(NC1=NCCS1)c1cc(-c2cccs2)nc2ccccc12,3,3,-1,-1,-3,-1,i,.,
CCC(=O)Nn1c(C)nnc1C,.,-2,2,-3,3,-8,i,-13,
COc1ccc(C(=S)N2CCN(c3cccc(Cl)c3)CC2)c(OC)c1,-77,-14,-17,-8,-13,1,.,.,
Cc1c(NC(=O)C(C)OC(=O)c2cc(Cl)ccc2O)c(=O)n(-c2ccccc2)n1C (stereo not given),2,9,2,8,-6,2,i,-7,
COc1cccc(C(C)(O)c2nc(-c3cc4ccccc4o3)cs2)c1 (stereo not given),10,-3,-20,.,.,.,.,-18,
Cn1nc(NC(=O)C(F)(F)F)c2ncc(-c3ccc(Cl)cc3)nc21,28,-1,0,2,-8,7,i,.,
Oc1ccc(N=Cc2ccc(O)c(O)c2)cc1,.,16,1,56*,106*,3,i,-12,
COc1ccc(N2CC(C(=O)NCc3ccco3)CC2=O)cc1 (stereo not given),-6,6,0,15,-3,-9,i,-6,
O=C(O)COc1ccc(/C=N/NC(=O)Cc2ccc(Cl)cc2)cc1,-7,0,-1,-6,-6,-10,i,-14,
Cc1ccc(S(=O)(=O)Nc2cccc(C(=O)NC3CCN(Cc4ccccc4)CC3)c2)cc1F,8,.,.,.,.,2,i,0,
COc1cccc(NC(=O)n2nc(N)cc2-c2ccc(Cl)cc2)c1,20,-1,-1,-8,11,25,i,-9,
CC1CCC2(CC1)NC(=O)N(Cc1nc(-c3ccccc3)no1)C2=O (stereo not given),.,5,0,-2,7,-1,i,-10,

# Random excerpt: 2 compounds from above
SMILES,Env fusion inh,MT1-MMP act inh,MT1-MMP act inh RFP,PABP polyA inh,eIF4H inh,CSC inhib,Rce1 inhib,Yeast UUG start,others
Cc1c(NC(=O)C(C)OC(=O)c2cc(Cl)ccc2O)c(=O)n(-c2ccccc2)n1C (stereo not given),2,9,2,8,-6,2,i,-7,
Cc1ccc(S(=O)(=O)c2nc(-c3cccs3)oc2N2CCC(C(N)=O)CC2)cc1,-10,0,2,.,.,-6,.,-30,

# Next part
SMILES,Env fusion inh,MT1-MMP act inh,MT1-MMP act inh RFP,PABP polyA inh,eIF4H inh,CSC inhib,Rce1 inhib,Yeast UUG start,others
Cc1ccc2c(c1)N(CC(=O)N1CCCCCC1)C(=O)CO2,-8,0,1,2,-11,-11,i,16,
O=C(NCc1ccc(Cl)cc1)C1CCC(CNS(=O)(=O)c2ccccc2)CC1 (stereo not given),.,-1,-3,-2,-9,-9,i,-8,
Cc1[nH]c2ccc(F)cc2c(=O)c1SC(F)(F)C(F)F,-1,-2,-5,-8,-6,-12,i,-13,
CCCn1c(=O)c(C(=O)NCc2cccnc2)c(O)c2ccccc21,.,7,5,9,6,-18,i,-11,
COc1ccc(C(=O)OCCN2CCOCC2)cc1OC,.,0,5,8,4,-1,.,-6,
O=C1C(=Cc2ccccc2O)SC(=S)N1CCCN1CCOCC1,85*,-3,5,.,.,.,.,-21,
Cc1ccc(NC(=O)CN(C)C(=O)CSc2nc3ccccc3o2)cc1,.,3,0,3,-9,-13,i,-3,
O=CN1CCN(C(=O)CC(c2ccccc2)c2cc(Br)ccc2O)CC1 (stereo not given),18,-4,-2,-2,-12,-7,i,-10,
CCOc1ccc(Nc2nc(NCc3ccco3)nc(N)c2[N+](=O)[O-])cc1,-9,5,5,9,4,-4,i,.,
COC(=O)NNC(=O)COc1cc(C)ccc1C,8,1,4,-1,-6,4,i,-28,
C/C(=C\C(=S)Nc1ccccc1)Nc1ccc2ccccc2c1,-20,-1,10,-6,-4,16,i,.,
Cc1nn(C(=O)/C(C#N)=C/N(C)C)c(C)c1C,15,-1,2,11,-2,-4,i,.,
CC(C)(C)c1ccc(/C([O-])=C(/C(=S)NCc2ccco2)[n+]2ccccc2)cc1,.,.,.,60*,32*,.,i,.,eIF4H inh retest=90*;PABP polyA inh retest=65*
CC(C)c1ccc(CN2CC(C(=O)O)CC2=O)cc1 (stereo not given),.,2,5,-9,-5,-2,i,-8,
COc1ccc(C2C(C(=O)c3ccco3)=C(O)C(=O)N2CCN2CCOCC2)c(OC)c1 (stereo not given),-9,1,5,-1,49,.,i,-12,

# 3 compounds already listed, ordered by number of heavy atoms, low to high:
SMILES,Env fusion inh,MT1-MMP act inh,MT1-MMP act inh RFP,PABP polyA inh,eIF4H inh,CSC inhib,Rce1 inhib,Yeast UUG start,others
Cc1ccc2c(c1)N(CC(=O)N1CCCCCC1)C(=O)CO2,-8,0,1,2,-11,-11,i,16,
O=C1C(=Cc2ccccc2O)SC(=S)N1CCCN1CCOCC1,85*,-3,5,.,.,.,.,-21,
Cc1ccc(NC(=O)CN(C)C(=O)CSc2nc3ccccc3o2)cc1,.,3,0,3,-9,-13,i,-3,

# The results go on.
SMILES,Env fusion inh,MT1-MMP act inh,MT1-MMP act inh RFP,PABP polyA inh,eIF4H inh,CSC inhib,Rce1 inhib,Yeast UUG start,others
Cc1nc(C)n(C(C)CC(=O)O)n1 (stereo not given),-28,-2,4,-6,8,4,i,1,
CC(=O)N1N=C(c2cccs2)CC1c1ccco1 (stereo not given),-1,1,3,-5,-4,.,i,.,
Cc1ccc(/C=C(\C#N)C(=O)N2CCCC2)c(C)c1,12,-1,-1,-10,-4,-5,i,.,
COc1ccc(-c2cc(C)no2)cc1S(=O)(=O)N1CCOc2ccc(C)cc21,17,-1,-3,22,30,-9,i,-12,
